Bioassay records as filed in PubChem.
HIV Env fusion = inhibitors of HIV Env-mediated cell fusion. HeLa-JRFL Env/CEM21 cell fusion, luciferase. inhibition, % at 12.3 µM. 1.1% of 360,000 active;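 active means mean replicate inhibition score of at least 50 and every replicate individually at or above 50; inconclusive means only one of the two criteria met; inactive means mean below 50 and not all replicates reaching 50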;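 further: 0% = plate neutral controls and 100% = maraviroc near 300 nM; one replicate is shown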
CSC inhib = cancer stem cell inhibition; cancer stem cell-like cells viability, luminescence; 1.1% of 300,000 active; inhibition, % at 7.5 µM; AID 2717;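 active means mean at 75% or more and at least half the replicates too; inconclusive means mean and replicates disagree; tested in HMLE shEcad cells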;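 further: 0% = median of negative and 100% = median of positive control wells; the first replicate is given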
UUG fidelity = alters start codon recognition fidelity in yeast | AID 602363 | activity score, % at 18.7 µM | 0.13% of 350,000 active | S. cerevisiae UUG-firefly luciferase reporter, luminescence/redox ratio;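 active means replicate mean at a twofold rise or more, about +100% in these data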;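 further: firefly luciferase made from a UUG start codon reports start codon fidelity; reporter light over untreated wells divided by growth signal over untreated wells; some hits fall short of that in this replicate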
PABP polyA inh = blocks human PABP binding to poly(A) RNA. 1% of 290,000 active. inhibition, % at 35 µM. fluorescence polarization. P11940;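 active means 50% or more with normal probe brightness, or confirmed in later tests; inconclusive means above 50% with abnormal brightness, or retests that disagree; inactive means below 50% or failed in later tests; about a fifth of its hits are not listed in these tables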;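 further: calls also rest on retests at 20 µM and on dose response follow-up; controls were probe without protein and protein plus probe with vehicle; some compounds called inactive have numbers as strong as hits; many hits fall short of the cut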
Target sequence (P11940 whole entry, looked up): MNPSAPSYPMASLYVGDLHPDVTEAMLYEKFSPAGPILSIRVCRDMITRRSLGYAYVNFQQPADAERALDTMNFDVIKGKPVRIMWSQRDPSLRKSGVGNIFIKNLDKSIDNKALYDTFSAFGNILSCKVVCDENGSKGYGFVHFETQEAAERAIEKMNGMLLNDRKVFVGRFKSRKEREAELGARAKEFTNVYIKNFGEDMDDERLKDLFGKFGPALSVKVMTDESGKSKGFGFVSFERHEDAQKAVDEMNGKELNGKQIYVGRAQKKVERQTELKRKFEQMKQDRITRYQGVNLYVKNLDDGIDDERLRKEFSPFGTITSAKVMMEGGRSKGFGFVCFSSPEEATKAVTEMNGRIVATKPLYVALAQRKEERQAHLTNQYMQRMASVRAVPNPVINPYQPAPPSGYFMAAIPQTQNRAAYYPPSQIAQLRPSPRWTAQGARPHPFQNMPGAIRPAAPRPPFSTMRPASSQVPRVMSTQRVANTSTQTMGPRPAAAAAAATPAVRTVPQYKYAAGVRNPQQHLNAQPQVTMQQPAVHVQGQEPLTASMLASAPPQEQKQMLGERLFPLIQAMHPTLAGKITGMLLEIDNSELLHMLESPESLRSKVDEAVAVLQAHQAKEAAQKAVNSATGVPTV
eIF4H inh = inhibitors of RNA binding by human eIF4H. AID 2012. 0.94% of 290,000 active. inhibition, % at 35 µM. eIF4H fluorescence polarization binding assay;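 active means 50% or more with normal probe brightness, or confirmed in later tests; inconclusive means above 50% with abnormal brightness, or retests that disagree; inactive means below 50% or failed in later tests; about a fifth of its hits are not listed in these tables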;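 further: calls also rest on retests at 20 µM and on dose response follow-up; 0% = protein and probe with vehicle and 100% = probe without protein; strong numbers were not always called active; many hits fall short of the cut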
Rce1 inhib = yeast Ras-converting enzyme inhibition | calls only | 0.27% of 290,000 active | Q03530 | yeast membranes, quenched prenylated peptide cleavage fluorescence;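 active means fall in fluorescence gain of 50% or more versus controls, with final raw signal at or below 3038400; inconclusive means same 50% fall but final raw signal above 3038400; inactive means fall in fluorescence gain under 50%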;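 further: plate controls were neutral control wells for no effect and wells lacking membranes for full effect; tested at 10 µM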
Target sequence (Q03530 whole entry, looked up): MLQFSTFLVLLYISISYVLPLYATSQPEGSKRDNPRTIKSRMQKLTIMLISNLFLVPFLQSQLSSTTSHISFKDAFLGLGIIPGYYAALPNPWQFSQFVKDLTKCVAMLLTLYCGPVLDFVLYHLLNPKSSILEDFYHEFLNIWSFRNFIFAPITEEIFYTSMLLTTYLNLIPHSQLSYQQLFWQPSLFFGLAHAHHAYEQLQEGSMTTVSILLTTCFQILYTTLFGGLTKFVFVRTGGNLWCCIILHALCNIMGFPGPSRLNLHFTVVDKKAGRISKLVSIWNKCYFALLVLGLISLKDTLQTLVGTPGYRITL
MT1-MMP act inh = blocks activation of human MT1-MMP; AID 651647; P50281; GFP/RFP ratio change, % at 20 µM; HT1080 RFP-PRO-GFP cells, GFP/RFP ratio fluorescence, overnight; percent of plate control window, DMSO zero; 0.061% of 360,000 active;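 active means GFP/RFP ratio change of at least 30% with cell ATP level not reduced by more than half and red fluorescence within 50% of control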; further: strong numbers were not always called active
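Test system: HT1080 cells expressing an RFP-PRO-GFP fluorescent reporter construct / Compound dosing: single-point 20 µM compound, 1% DMSO / Schedule: cells overnight before dosing, compound overnight, 37 °C, 5% CO2 / Evaluation: GFP/RFP fluorescence ratio / Control set: DMSO and RFP-L50D-GFP cell wells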
eIF4H inh retest = also measured in eIF4H inh; calls as there; inhibition, %; compound at 20 µM; confirmation average;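 mean of two retest wells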
PABP polyA inh retest = second read-out of PABP polyA inh, no call of its own (marks repeat the call); inhibition, %; compound at 20 µM; confirmation repeats;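 mean of two retest wells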
MT1-MMP act inh RFP = also measured in MT1-MMP act inh; calls as there; RFP signal change, %; measured here: RFP expression control read;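 0 = vehicle wells; hits needed this value within 50% of zero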
An asterisk follows results filed as active; i = inactive; ? = inconclusive; / = no result given; & = joins results of further samples; [ ] = dose if it differs, or a comment. A portion of the library. The share of hits here may be higher or lower than overall.

The opening two compounds (preview)
SMILES	HIV Env fusion	CSC inhib	UUG fidelity	PABP polyA inh	eIF4H inh	Rce1 inhib	MT1-MMP act inh	MT1-MMP act inh RFP	others
Cc1ccc2nc(N(CCCN(C)C)C(=O)c3cc4ccccc4oc3=O)sc2c1	/	/	2	-11	-1	i	6	5
O=C(/C=C/c1c(Cl)nc2ccccn12)Nc1ccc(F)cc1	-4	-7	/	-7	14	i	7	-1

The whole of this part, from the start:
SMILES	HIV Env fusion	CSC inhib	UUG fidelity	PABP polyA inh	eIF4H inh	Rce1 inhib	MT1-MMP act inh	MT1-MMP act inh RFP	others
Cc1ccc2nc(N(CCCN(C)C)C(=O)c3cc4ccccc4oc3=O)sc2c1	/	/	2	-11	-1	i	6	5
O=C(/C=C/c1c(Cl)nc2ccccn12)Nc1ccc(F)cc1	-4	-7	/	-7	14	i	7	-1
O=C(OCC(=O)c1ccc[nH]1)c1ccc(S(=O)(=O)N2CCCCCC2)cc1	/	-4	/	5	7	i	-2	1
Cc1cccc(CC(=O)Nc2cccnc2)c1	2	-6	-19	-4	7	i	6	1
COc1cc(OC)c2c(-c3ccccc3)cc(=O)oc2c1C(CC(=O)N1CCCC1)c1ccc2c(c1)OCO2 (stereo unspecified)	19	5	-12	7	64	i	-40	-27	eIF4H inh retest=24;PABP polyA inh retest=15
CCn1cc(CNC(=O)/C=C/c2ccc([N+](=O)[O-])cc2)cn1	/	-2	-6	-6	-12	i	1	0
COc1ccc(/C=C/C(=O)OCC(=O)NC(=O)NC(C)(C)C)cc1	2	-9	/	10	1	i	1	0
O=C(Nc1ccc(F)c(Cl)c1)c1cc(C2CCCCN2C(=O)c2ccc3c(c2)CCO3)on1 (stereo unspecified)	7	/	-8	/	/	/	1	-6
CCN(CC)C(=O)[C@H]1C[C@H](CC(=O)NCCCn2ccnc2)C(=O)N2CCc3c([nH]c4cc(CCC(=O)N(C)C)ccc34)[C@]12C	-36	/	-6	/	/	/	0	3
NS(=O)(=O)c1ccc(NC(=O)COC(=O)C2(c3ccccc3F)CCCC2)cc1	21	-3	/	-13	-1	i	0	-5
COC(=O)c1cc(NC(=O)c2ccc(F)cc2)cc(C(=O)OC)c1	1	-7	/	-2	-9	i	1	5
Cc1cc(C)c(NC(=O)CNC(=O)c2ccccc2OCc2c(C)noc2C)c(C)c1	0	10	/	/	/	i	0	4
O=C(Nc1ccccc1N1CCN(C(=O)c2ccccc2)CC1)c1ccco1	-2	7	/	-1	2	i	-1	3
O=C(NC1CCCCC1)c1ccc(S(=O)(=O)N2CCCCC2)cc1	3	-19	-1	2	-8	i	1	7
Cc1ccc(OCCC(=O)OCC(=O)Nc2c(C)nn(-c3ccccc3)c2C)cc1	-33	13	0	/	/	i	-2	2
Cn1c(N)c(C(=O)CSc2nnc3n2CCCCC3)c(=O)n(C)c1=O	-4	-10	-9	/	/	/	3	5
CCN(c1ccccc1)c1nc(=O)c2cccnc2s1	0	26	-1	0	-1	i	-2	3
COC(=O)c1c(NS(=O)(=O)Cc2ccccc2)sc2c1CCCC2	/	-6	-3	0	7	i	-44	3
COc1ccc(C)cc1S(=O)(=O)NC(C)C(=O)Nc1ccc2c(c1)OCO2 (stereo unspecified)	17	-16	-1	4	-6	/	3	5
CCOC(=O)c1ccccc1NC(=O)COC(=O)CN1C(=O)C2CC=CCC2C1=O (stereo unspecified)	/	7	9	-2	-12	i	-1	2
CC(C)(C)c1ccc(OCC(=O)Nc2ccc3c4c(cccc24)C(=O)NC3=O)cc1	40	/	-14	?	?	i	-126	2
Cc1ccccc1OCC(=O)NS(=O)(=O)c1ccc(Cl)cc1	-45	28	-17	13	-10	i	-3	-3
COc1ccccc1C(=O)N1CCC(N2CCN(c3ccccc3OC)CC2)CC1	16	-4	/	6	-4	i	2	0
Clc1ccccc1-c1ccc(/C=N/Nc2nncc(-c3ccccc3)n2)o1	12	6	/	-6	-15	i	0	-1
C[C@@H]1CN([C@@H](C)CO)C(=O)c2cc(Br)cnc2O[C@@H]1CN(C)Cc1ccc(Oc2ccccc2)cc1	-17	/	-2&19	/	/	/	1	-5
CC(C)CC(=O)NS(=O)(=O)c1ccc(NC(=O)c2ccco2)cc1	/	9	-3	-15	1	i	2	6
Cc1cccc(OCCCc2c(C)n[nH]c2C)c1	-11	/	-20	12	2	i	-6	-9
COc1cccc(OCC(O)CN2CCN(c3ccc(F)cc3)CC2)c1 (stereo unspecified)	2	4	-11	1	0	i	-1	2
FC(F)Oc1ccccc1/C=N/n1cnc2ccccc21	-24	2	/	14	4	i	1	-2
COc1ccc(NC(=O)CN2C(=O)NC3(CCCC3)C2=O)cc1Cl	-5	-13	-11	4	-5	i	0	2
CC(CCCC(C)(C)O)CC1C2=C(CCCC2=O)OC2=C1C(=O)CCC2 (stereo unspecified)	21	3	-2	11	2	i	-1	1
CCOC(=O)CSc1nnc(CNC(=O)c2ccccc2OC)n1-c1ccc(OC)cc1	-37	0	-15	5	-8	i	5	2
Cn1nccc1C(=O)Nc1ccccc1C(=O)O	/	-4	-7	10	-2	i	3	2
COc1ccc(-c2csc(N(CC(C)C)C(=O)c3ccco3)n2)cc1	2	46	-17	0	-8	i	0	-5
O=C(NC1CC1)C1=C[C@H](c2coc3ccccc3c2=O)C[C@H](OCc2ccc(CO)cc2)O1	0[16.7 µM]	11	-4&6	/	/	i	-2	3
CS(=O)(=O)N(CCc1ccccc1)CC(=O)NCc1ccccc1Cl	11	-5	-10	-1	-7	i	8	2
CC(=O)Nc1cccc(NC(=O)CSc2nnc3ccc(-c4cccnc4)nn23)c1	-23	15	/	/	/	i	1	3
Cc1ccc(-n2ncc3c2CC(C)(C)CC3NC(=O)c2c(C)noc2C)cc1 (stereo unspecified)	-6	14	-5	0	1	i	2	-2
Cc1ccccc1Oc1ccc2c(c1)[C@@H]1C[C@H](N(C)C(=O)c3ccc(C#N)cc3)[C@H]([C@H](C)O)C(=O)N1CC2	-167	/	-9	/	/	/	-1	-5
O=C(c1ccc(Cl)cc1)N1CCN(C(=O)C2CCCCC2)CC1	10	9	-2	-2	-11	i	0	2

Quoted at random: 7 compounds from above, in no set order.
SMILES	HIV Env fusion	CSC inhib	UUG fidelity	PABP polyA inh	eIF4H inh	Rce1 inhib	MT1-MMP act inh	MT1-MMP act inh RFP	others
O=C(Nc1ccc(F)c(Cl)c1)c1cc(C2CCCCN2C(=O)c2ccc3c(c2)CCO3)on1 (stereo unspecified)	7	/	-8	/	/	/	1	-6
O=C(/C=C/c1c(Cl)nc2ccccn12)Nc1ccc(F)cc1	-4	-7	/	-7	14	i	7	-1
C[C@@H]1CN([C@@H](C)CO)C(=O)c2cc(Br)cnc2O[C@@H]1CN(C)Cc1ccc(Oc2ccccc2)cc1	-17	/	-2&19	/	/	/	1	-5
Cc1cccc(CC(=O)Nc2cccnc2)c1	2	-6	-19	-4	7	i	6	1
Cn1c(N)c(C(=O)CSc2nnc3n2CCCCC3)c(=O)n(C)c1=O	-4	-10	-9	/	/	/	3	5
COC(=O)c1c(NS(=O)(=O)Cc2ccccc2)sc2c1CCCC2	/	-6	-3	0	7	i	-44	3
CCn1cc(CNC(=O)/C=C/c2ccc([N+](=O)[O-])cc2)cn1	/	-2	-6	-6	-12	i	1	0

The list continues.
SMILES	HIV Env fusion	CSC inhib	UUG fidelity	PABP polyA inh	eIF4H inh	Rce1 inhib	MT1-MMP act inh	MT1-MMP act inh RFP	others
Cc1ccc(NC(=S)NCCc2ccc(Cl)cc2)c(C)c1	-8	-4	-24	-5	-7	i	-2	-9
Cc1ccc(N2CC(C(=O)Nc3ccc(S(=O)(=O)Nc4nccs4)cc3)CC2=O)cc1C (stereo unspecified)	16	-6	-8	-9	-7	i	3	0
COc1ccc(C(=O)C2CCN(C(=O)c3ccc(F)cc3)CC2)cc1	10	-9	5	-8	1	i	2	-10
NCC/C=C1/c2ccccc2CSc2ccccc21	-58	25	-1	-3	-6	i	-7	-10
CCOCCCNCc1ccc(OCCC(C)C)c(OC)c1	14	9	-8	-15	-6	i	4	7
O=C(NC1=NCCS1)c1ccc(C(F)(F)F)cc1	-17	5	-7	-2	-9	i	1	-2
CC(=O)c1ccc(N2CCN(S(=O)(=O)c3ccc(-c4cnc(C5CC5)o4)cc3)CC2)cc1	/	-24	-11	/	/	i	-2	-12
C=C(C)COc1ccc(-c2[nH]ncc2Oc2ccc(OC)cc2)c(O)c1	-24	?	-20	-18	0	i	4	-7
CC1=NN(C(C#N)c2c(C)nn(Cc3ccccc3)c2C)C(C)(C)C1 (stereo unspecified)	7	-8	/	-10	0	i	0	7
CCn1c(SCC(=O)Nc2ccc(C)cc2)nc2nc3c(cc2c1=O)COC(C)(C)C3	19	-14	10	-4	3	i	1	-6
Cc1cc(/C=C(\C#N)C(=O)NCc2ccco2)c(C)n1C1CCCC1	-49	26	2	48	42	i	5	0
CSC1=NN(c2ccccc2)CN(c2ccccc2)N1C	5	/	4	/	/	/	-4	-5
COc1ccccc1C(=O)NCCC(=O)NCC(c1ccco1)N1CCCCC1 (stereo unspecified)	-13	-10	/	/	/	i	4	5
Cc1ccc2nc3c(c(C(=O)OCC(=O)N(C)C4CCS(=O)(=O)C4)c2c1)CCCC3 (stereo unspecified)	18	-8	/	-6	4	i	-2	2
O=C(Cn1nnc(-c2ccccc2F)n1)NCCc1ccccc1	3	2	-5	7	-2	i	-1	8
COc1ccc(S(=O)(=O)N2CCCC2CNC(=O)C(=O)NC2CCCC2)cc1 (stereo unspecified)	19	/	-11	/	/	/	0	-1
Cc1onc(-c2c(Cl)cccc2Cl)c1C(=O)NCC1CCCO1 (stereo unspecified)	/	-9	-3	-5	-11	i	7	7
CCc1ccccc1NC(=S)N(CCN(C)C)Cc1cccs1	-13	-9	-4	-10	-6	i	-2	3
COc1ccc(C(=O)N2CCN(C)C(=O)[C@@H]2C)cc1OC1CCN(C(C)C)CC1	/	-5	-10	0	58	i	-3	4	eIF4H inh retest=-4;PABP polyA inh retest=8
CC(C)n1c(SCCCc2ccccc2)nc2c1c(=O)[nH]c(=O)n2C	/	/	-29	-24	-4	i	12	-6
Cc1ccc(NC(=O)Cn2c(/C=C/c3ccccc3)nc3ccccc32)cc1C	-456	14	-19	34	-5	i	-4	-7
COc1ccc(-c2nnc(SCc3nnc(-c4ccc(Cl)cc4)o3)n2-c2ccccc2)cc1	65*	4	-9	-15	-2	i	8	-11
COc1ccc(CCNc2ncnc3sc(C)cc23)cc1OC	5	3	-15	-9	5	i	6	-28

Sorted by count of non-hydrogen atoms (smallest number first): some entries from above
SMILES	HIV Env fusion	CSC inhib	UUG fidelity	PABP polyA inh	eIF4H inh	Rce1 inhib	MT1-MMP act inh	MT1-MMP act inh RFP	others
CCOCCCNCc1ccc(OCCC(C)C)c(OC)c1	14	9	-8	-15	-6	i	4	7
COc1ccc(CCNc2ncnc3sc(C)cc23)cc1OC	5	3	-15	-9	5	i	6	-28
C=C(C)COc1ccc(-c2[nH]ncc2Oc2ccc(OC)cc2)c(O)c1	-24	?	-20	-18	0	i	4	-7
COc1ccc(C(=O)N2CCN(C)C(=O)[C@@H]2C)cc1OC1CCN(C(C)C)CC1	/	-5	-10	0	58	i	-3	4	eIF4H inh retest=-4;PABP polyA inh retest=8
CC(=O)c1ccc(N2CCN(S(=O)(=O)c3ccc(-c4cnc(C5CC5)o4)cc3)CC2)cc1	/	-24	-11	/	/	i	-2	-12
COc1ccc(-c2nnc(SCc3nnc(-c4ccc(Cl)cc4)o3)n2-c2ccccc2)cc1	65*	4	-9	-15	-2	i	8	-11
